GALR2 ag – agonists of human galanin receptor 2 (GALR2). O43603. GALR2-expressing cells, agonist activation read-out. activation, %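 (tested at 5 µM)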. 0.48% of 140,000 active;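 active = above mean plus 3 SD of all compounds, about 5% in these data, not always enough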;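 also: 0% = vehicle buffer wells and 100% = reference agonist at full effect; tested in CHO reporter cells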
Target sequence (O43603 whole entry, looked up): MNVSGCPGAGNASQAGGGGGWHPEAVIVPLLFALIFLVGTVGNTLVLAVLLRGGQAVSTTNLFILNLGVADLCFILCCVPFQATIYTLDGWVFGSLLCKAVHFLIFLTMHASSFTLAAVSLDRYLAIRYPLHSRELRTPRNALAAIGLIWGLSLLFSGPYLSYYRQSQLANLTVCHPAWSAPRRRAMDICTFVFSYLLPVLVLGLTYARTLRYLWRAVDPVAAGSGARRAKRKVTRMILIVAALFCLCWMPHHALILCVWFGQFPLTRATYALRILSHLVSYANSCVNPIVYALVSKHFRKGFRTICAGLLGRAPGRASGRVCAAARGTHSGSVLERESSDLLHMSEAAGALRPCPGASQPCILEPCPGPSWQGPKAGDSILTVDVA
PKD1 inh – inhibitors of human PKD1 kinase; 0.056% of 200,000 active; AID 797; Q15139; PKD1 kinase fluorescence polarization assay; inhibition, %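 (about 10 µM by stock and volumes)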;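 active = inhibition of 50% or more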;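 also: controls were vehicle for no effect and a reference inhibitor for full effect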
HSV augment – increases HSV replication in cells; HSV replication augmentation in cells, fold increase; maximum fold increase; 0.005% of 220,000 active; AID 1956;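 active = peak rise of 1.5-fold or more in the series; tested in PC3 cells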;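 also: first round at 10 µM; read as green reporter fluorescence; hits show the peak of a series up to 25 µM; 1 = signal of infected wells without compound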
RGS16-Gao HTS – regulators of human RGS16-Galphao interaction; O15492+P09471; 0.38% of 220,000 active; binding response (% of control), % at 10 µM; bead-based flow cytometry RGS16-Galphao binding, fluorescence; actives lie on both sides;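 active = below 25% or above 175%, edge rows of some plates excepted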;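 also: Galphao activated by GDP with aluminum fluoride before binding; 100% = wells without compound and 0% = beads without RGS; some results beyond the cut were filed as inactive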
Target sequence (O15492 whole entry, looked up): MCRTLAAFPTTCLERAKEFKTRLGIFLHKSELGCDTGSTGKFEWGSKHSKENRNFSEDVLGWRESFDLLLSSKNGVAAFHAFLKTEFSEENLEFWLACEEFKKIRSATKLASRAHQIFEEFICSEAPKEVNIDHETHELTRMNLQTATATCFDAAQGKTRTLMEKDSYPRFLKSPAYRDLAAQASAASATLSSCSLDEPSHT
Target sequence (P09471 whole entry, looked up): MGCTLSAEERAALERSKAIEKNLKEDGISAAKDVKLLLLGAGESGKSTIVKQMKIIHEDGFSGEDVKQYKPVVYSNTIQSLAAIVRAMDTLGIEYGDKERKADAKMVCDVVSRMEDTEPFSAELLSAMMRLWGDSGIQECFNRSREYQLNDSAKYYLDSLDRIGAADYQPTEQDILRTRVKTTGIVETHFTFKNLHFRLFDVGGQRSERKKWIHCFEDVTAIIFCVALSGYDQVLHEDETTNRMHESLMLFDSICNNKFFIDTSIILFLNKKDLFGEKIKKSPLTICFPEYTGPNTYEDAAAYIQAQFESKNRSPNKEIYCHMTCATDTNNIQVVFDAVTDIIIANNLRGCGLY
Insulin prom inh – TRM-6 insulin promoter activity inhibition | inhibition, % at 2 µM | 0.9% of 130,000 active | TRM-6 cells (human fetal islet line), insulin promoter-eGFP reporter, imaging; reporter expression induced with tamoxifen;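 active = inhibition above the mean plus 3 SD, with well images judged a real hit on visual review, cut at about 60% in these data, passing the limit was not always enough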
Insulin prom inh cell count – recorded beside Insulin prom inh, whose call it bears; normalized cell count, %; measured here: cell count, toxicity; reference of the scale not given here;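 cells exposed to compound for 48 h; stained nuclei by imaging scaled within each plate; lower means fewer cells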
HSV augment primary fold – recorded beside HSV augment, whose call it bears; fold increase; compound at 10 µM; measured here: primary screen fold increase 10 uM; tested in PC3 cells;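 GFP signal in the first replicate; 1 = infected wells without compound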
An asterisk follows results filed as active; i = inactive; . = no result given; & = joins results of further samples.

The first 2 entries, ahead of the listing:
Each structure is followed by: Insulin prom inh cell count, PKD1 inh, HSV augment primary fold, HSV augment, RGS16-Gao HTS, GALR2 ag, Insulin prom inh
1. Cc1ccc(-n2nnc3c(=O)n(CC(=O)OCc4ccccc4)cnc32)cc1
    ., -0.5, 0.95, i, 104.2, -1.0, .
2. Cc1ccc(SCc2cn3c(C)cc(C)nc3n2)cc1
    ., ., 1.4, i, 102.4, ., .

The listing, repeating the preview:
Each structure is followed by: Insulin prom inh cell count, PKD1 inh, HSV augment primary fold, HSV augment, RGS16-Gao HTS, GALR2 ag, Insulin prom inh
1. Cc1ccc(-n2nnc3c(=O)n(CC(=O)OCc4ccccc4)cnc32)cc1
    ., -0.5, 0.95, i, 104.2, -1.0, .
2. Cc1ccc(SCc2cn3c(C)cc(C)nc3n2)cc1
    ., ., 1.4, i, 102.4, ., .
3. COc1cc(NC(=O)CCC2CCCC2)cc(-n2cnnn2)c1
    90.9, -1.2, 0.84, i, 102.9, 0.5, -7.9
4. O=C(O)c1ccc(NS(=O)(=O)c2ccc3c(c2)OCCO3)cc1
    ., -20.3, 0.86, i, 104.5, ., .
5. Oc1ccc(-c2nnc(SCC3CCCCC3)o2)cc1
    ., -10.6, 0.89, i, 98.8, 0.4, .
6. O=C(Nc1ccon1)c1ccc(S(=O)(=O)N2CCCCCC2)cc1
    155.0, 1.2, 0.95, i, 100.0, -0.9, 31.2
7. O=C(/C=C/c1ccc(Cl)cc1)N1CCN(c2ccccc2[N+](=O)[O-])CC1
    ., 15.9, 0.99, i, 95.3, -1.2, .
8. Cc1noc(C)c1C(=O)OCC(=O)c1c(N)n(CC(C)C)c(=O)n(C)c1=O
    ., 0.6, 0.99, i, 93.8, -2.2, .
9. c1ccn(-c2ncnc3sc4c(c23)CCCC4)c1
    ., -10.2, 0.98, i, 120.7, 0.0, .
10. O=c1[nH]c(=S)[nH]c2c1C(c1cc([N+](=O)[O-])c(N3CCOCC3)cc1N1CCOCC1)O2 (stereo not given)
    ., -0.6, 0.92, i, 102.6, ., .
11. COc1ccc(-n2c(C)cc(C=O)c2C)cc1Cl
    128.6, -4.1, 0.96, i, 98.9, -0.2, 30.8
12. Cc1ccc(OCC(=O)N(C)CCc2ccccn2)cc1
    ., -19.6, 0.87, i, 98.2, -4.7, .
13. N#CC(C(=O)Nc1ccc(Cl)cc1)=C1Nc2ccccc2N1
    126.8, 4.6, 0.71, i, 100.1, -0.4, -36.4
14. Cc1ccc[n+](-c2nc3ccccc3nc2C(=C=[N-])C#N)c1
    128.9, -3.7, 1.24&0.95, i, 82.2&86.7, -3.0, -33.3
15. Cn1c(NNC(=O)c2c(F)cccc2F)cc(=O)n(C)c1=O
    ., ., 1.02, i, 113.7, ., .
16. COc1cc(O)c(CC=C(C)C)c(O)c1C(=O)CCc1ccc(O)cc1
    ., ., 0.62, i, 114.2, ., .
17. CC(C)CC(NC(=O)C(NC(=O)C1OC2OC(C)(C)OC2C2OC(C)(C)OC12)C(C)C)C(=O)O (stereo not given)
    ., -9.3, 0.9, i, 97.4, ., .
18. Cc1c(C(=O)C(=O)NCC2CCCO2)c2ccccc2n1C (stereo not given)
    79.0, -3.8, 0.95, i, 98.0, ., 58.3
19. Cc1ccccc1C(=O)Nc1sc(C)c(C)c1C(=O)c1ccccc1
    ., -0.1, 0.92, i, 47.5, 0.2, .
20. CCc1ccccc1NC(=O)c1ccc(CN2CCC(Cc3ccccc3)CC2)cc1
    90.6, -5.9, 0.837, i, 106.3, -0.4, -10.0
21. C=CCNC(=S)N1CCN(Cc2ccccc2)CC1
    ., -1.2, 1.05, i, 107.1, ., .
22. Cc1sc(NC(=O)Cc2ccc3c(c2)OCO3)nc1-c1ccc2c(c1)CCN2C(=O)c1ccc(F)cc1
    121.7, -12.8, 1.02, i, 78.3, -2.8, 21.6
23. Cc1ccc(N2C(=O)N(CC(=O)NC(N)=O)C(=O)C2C)cc1 (stereo not given)
    ., -4.1, 0.96, i, 109.0, ., .
24. Cc1ccc(C)c(C(=O)CN2C(=O)NC3(CCCCCCC3)C2=O)c1
    ., -0.9, 0.63, i, 92.1, ., .
25. COc1cc2[nH]c(=S)nc(NCCC(C)C)c2cc1OC
    162.1*, 10.2, 0.93, i, 106.4, ., 83.3*
26. CN(C)S(=O)(=O)c1cccc(N=C2SCCN2Cc2ccccc2)c1
    ., ., 0.92, i, 105.7, ., .
27. O=C(c1ccco1)N1CCN(c2ccccc2F)CC1
    99.3, -5.9, 0.95, i, 100.4, -1.8, 0.0
28. O=C(O)C1CCN(C(=O)c2ccco2)CC1
    100.5, -2.4, 0.9, i, 102.8, ., -76.9
29. OC(CNCC(c1ccco1)N1CCCCC1)c1ccccc1 (stereo not given)
    106.4, -7.0, 0.9, i, 104.4, -1.7, 36.4
30. Cn1c(=O)c2c(nc(CN3CCN(Cc4ccccc4)CC3)n2Cc2ccc(F)cc2)n(C)c1=O
    95.2, -7.8, 0.83, i, 100.0, -0.1, 0.0

3 structures from above, ordered by number of heavy atoms, smallest number first:
Each structure is followed by: Insulin prom inh cell count, PKD1 inh, HSV augment primary fold, HSV augment, RGS16-Gao HTS, GALR2 ag, Insulin prom inh
29. OC(CNCC(c1ccco1)N1CCCCC1)c1ccccc1 (stereo not given)
    106.4, -7.0, 0.9, i, 104.4, -1.7, 36.4
16. COc1cc(O)c(CC=C(C)C)c(O)c1C(=O)CCc1ccc(O)cc1
    ., ., 0.62, i, 114.2, ., .
8. Cc1noc(C)c1C(=O)OCC(=O)c1c(N)n(CC(C)C)c(=O)n(C)c1=O
    ., 0.6, 0.99, i, 93.8, -2.2, .

Single records, from the list above:
CCc1ccccc1NC(=O)c1ccc(CN2CCC(Cc3ccccc3)CC2)cc1 is listed with Insulin prom inh cell count: 90.6; PKD1 inh: -5.9; HSV augment primary fold: 0.837; HSV augment: i; RGS16-Gao HTS: 106.3; GALR2 ag: -0.4; Insulin prom inh: -10.0
O=C(Nc1ccon1)c1ccc(S(=O)(=O)N2CCCCCC2)cc1 is listed with Insulin prom inh cell count: 155.0; PKD1 inh: 1.2; HSV augment primary fold: 0.95; HSV augment: i; RGS16-Gao HTS: 100.0; GALR2 ag: -0.9; Insulin prom inh: 31.2

Additional compounds
Each structure is followed by: Insulin prom inh cell count, PKD1 inh, HSV augment primary fold, HSV augment, RGS16-Gao HTS, GALR2 ag, Insulin prom inh
31. O=C(O)c1nnn(-c2ccc([N+](=O)[O-])cc2)c1-c1ccccc1
    ., ., 0.96, i, 101.5, ., .
32. COc1ccccc1NC(=O)c1ccc(-c2nn(C)c(=O)c3ccccc23)cc1
    ., -11.2, 0.92, i, 100.9, ., .
33. COC(=O)c1ccc(C(C(=O)NCc2ccccc2)N(Cc2cccs2)C(=O)c2cnccn2)cc1 (stereo not given)
    74.4, -11.8, 0.82, i, 104.1, -2.3, 0.0
34. Cc1cccc(NC(=O)C2CCCN(S(=O)(=O)c3cccc4nonc34)C2)c1 (stereo not given)
    100.8, -0.1, 0.93, i, 101.5, ., -63.0
35. CCCCNC(=O)C(=O)N/N=C/c1ccc(OCc2ccccc2)cc1
    ., -4.3, 0.98, i, 105.5, ., .
36. O=C1c2ccccc2-c2nccnc21
    ., 0.2, 1.16, i, 101.3, -1.0, .
37. CC(C)c1ccc(NC(=O)c2ccc(NS(C)(=O)=O)cc2)cc1
    ., 0.7, 0.82, i, 105.3, ., .
38. N#CC(C#N)=C(N)CSc1cccc[n+]1[O-]
    183.2, -3.7, 1.07, i, 108.0, ., 0.0
39. CC1=C(C(=O)OCC2CCCO2)C(c2ccc(C)cc2)C2=C(CCCC2=O)N1 (stereo not given)
    ., -7.9, 1.18, i, 97.4, ., .
40. COC(=O)c1ccccc1NC(=S)NC(=O)COc1ccc(C(C)C)cc1
    79.2, -13.6, 0.97, i, 48.4, -1.0, 22.2
41. COc1ccc(CCNC(=S)Nc2ccc(OC)cc2)cc1
    145.3, 4.8, 0.94, i, 99.9, -0.8, -20.6
42. CC1COC(C)(CC(=O)NN2C(=O)c3ccccc3C2=O)O1 (stereo not given)
    86.4, -4.0, 1.01, i, 100.4, ., -35.7
43. Cc1cc(C(=O)N/N=C/c2cccc([N+](=O)[O-])c2)c(C)o1
    147.7, -14.1, 1.03, i, 100.0, -1.7, -2.4
44. Cc1ccc(NC(=O)Cc2ccc3c(c2)CCCC3)cc1C
    79.0, 2.2, 1.06, i, 101.4, -4.4, 8.3
45. O=C(Nn1cnc2ccccc2c1=O)c1ccc([N+](=O)[O-])cc1
    ., -1.2, 1.06, i, 102.4, ., .
46. Cc1cc(C)n2cc(CSc3nc4ccccc4s3)nc2n1
    55.9, -0.1, 1.3, i, 107.4, -1.5, 20.6
47. C=CCNC(=S)NNC(=O)c1ccncc1
    128.1, 0.5, 0.91, i, 102.8, ., 26.7
48. COc1ccccc1CN1C(=O)CN(C2CCCCCC2)C(=O)C1c1ccc(F)cc1 (stereo not given)
    108.5, -3.9, 0.74, i, 89.4, -0.5, -43.3
49. COc1ccc(-c2[nH]c(-c3ccccc3)nc2SCC(=O)NC2CCCC2)cc1
    125.1, -9.1, 0.78, i, 104.2, -0.9, -12.2
50. CC1CCCCN1C(=O)c1ccccc1OC1CCN(S(C)(=O)=O)CC1 (stereo not given)
    62.9, 5.0, 1.06, i, 88.0, ., 11.1
51. COc1ccc(S(=O)(=O)N(CC(=O)NCc2cccnc2)c2ccc(F)cc2)cc1OC
    103.0, 6.8, 1.1, i, 98.5, -1.0, -78.6
52. CCC(C)Sc1nc2ccccc2c(=O)[nH]1 (stereo not given)
    ., 3.3, 0.94, i, 107.9, -1.5, .
53. Cc1csc(NC(=O)Nc2cccc(Cl)c2)n1
    116.0, -5.0, 0.79, i, 63.9, -0.8, 0.0
54. O=C(c1cc(F)ccc1F)C1CCCN(C(=O)CCc2cnccn2)C1 (stereo not given)
    103.6, -1.2, 0.97, i, 103.2, ., 33.3
55. CCC1CCCCN1C(=O)Nc1cccc(NC(=O)N2CCCCC2CC)c1 (stereo not given)
    92.6, -5.0, 1.13, i, 100.6, 0.5, -28.1
56. O=C(Cn1c(=O)sc2ccccc21)OC(CCl)CCl
    169.6, -16.4, 0.96, i, 107.0, -3.9, 73.3
57. COc1ccc(-c2cn3cccc(C)c3n2)cc1Br
    99.3, -1.1, 0.74, i, 101.2, -1.1, 41.2
58. O=C(c1ccc(Cl)nc1)N1CCN(S(=O)(=O)c2ccc(Cl)cc2)CC1
    ., 3.6, 1, i, 96.7, ., .
59. COc1ccc(-c2nnc(SC)o2)c(OC)c1
    ., 7.8, 1.01, i, 98.3, ., .
60. CCOC(=O)CSC1=C(C#N)C(=O)NC(c2ccc(OC)c(OC)c2)S1 (stereo not given)
    123.5, 2.6, 1.03, i, 100.1, -0.3, 0.0

Each structure is followed by: Insulin prom inh cell count, PKD1 inh, HSV augment primary fold, HSV augment, RGS16-Gao HTS, GALR2 ag, Insulin prom inh
61. Cc1ccccc1N1C(=O)c2cccc([N+](=O)[O-])c2C1=O
    ., -4.2, 0.96, i, 108.7, ., .
62. COc1ccc(CC(=O)NCC2COc3ccccc3O2)cc1 (stereo not given)
    ., 0.0, 1.11, i, 114.3, ., .
63. CCOC(=O)c1cccc(NC(=O)c2ccco2)c1
    110.9, 17.9, 0.93, i, 75.1, -1.4, -31.2
64. Cc1cc(C)nc(SCc2nnc(SCC(=O)Nc3ccc(C)c(C)c3)o2)n1
    119.3, 3.9, 1.04, i, 96.1, -1.2, 19.4
65. COC(=O)c1sc2nc(CN3CCOCC3)nc(N3CCOCC3)c2c1C
    ., 20.6, 0.87, i, 111.0, -0.6, .
66. COc1ccccc1-c1cc(C(F)(F)F)c(C#N)c(=O)[nH]1
    80.7, 6.2, 1.03, i, 101.4, ., 16.3
67. COc1ccc(CCN(C)c2ncnc3sccc23)cc1OC
    ., -8.5, 1.06, i, 103.1, ., .
68. O=C(CCN1CCCC1)Nc1ccc(Br)cc1
    92.9, -8.4, 0.9, i, 106.5, -2.7, 2.7
69. COc1ccc(C2C(C(=O)NCc3cccnc3)c3cc(OC)c(OC)cc3C(=O)N2C)cc1 (stereo not given)
    96.8, -1.4, 1.08, i, 104.0, -3.5, -6.5
70. CC1CN(CCCOc2ccccc2[N+](=O)[O-])CC(C)O1 (stereo not given)
    79.0, 9.9, 1.06, i, 118.2, -1.8, 11.1
71. Clc1cccc(-c2nc(NCc3cccnc3)c3ccccc3n2)c1
    ., 5.9, 0.97, i, 98.7, -1.3, .
72. CC(=O)Nc1ccc(S(=O)(=O)NC2(C(F)(F)F)C(=O)Nc3c2c(=O)[nH]c(=O)n3Cc2ccccc2)cc1 (stereo not given)
    98.2, -15.2, 0.99, i, 98.9, 0.4, 41.4
